# Arbovirus anti: antivirals against arbovirus infection, primary screen, cell-based, full library, 10K replicate subset; inhibition, % at 10 µM; hit rate 0.37% among 200,000; arbovirus infection cell-based antiviral screen;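 active = inhibition from about 30%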;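 also: bluetongue infection of BSR cells; cell survival read as ATP light after 72 h; 0% = infected wells without compound and 100% = uninfected wells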
# Mtb growth: M. tuberculosis H37Rv growth inhibitors, H37Rv strain (AID 1626). M. tuberculosis H37Rv growth inhibition; higher % means a stronger effect. inhibition, % at 10 µM, or IC50 in µM where a hit was titrated. hit rate 0.95% among 220,000;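 active = confirmed in a dose series; inconclusive = inhibition above 80% but not taken into the dose series; inactive = below 80% or under 30% at every dose of the series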;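 also: bacteria incubated seven days before Alamar blue readout; 0% = bacteria only wells and 100% = bacteria with antibiotic wells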
# Mtb betalactam: beta-lactam sensitization of Mtb H37Rv, H37Rv. AID 434955, 2010. hit rate 0.27% among 330,000. inhibition, % at 25 µM. M. tuberculosis H37Rv growth with meropenem, percent inhibition; hits of this screen are not shown here;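 active = about 74% or more and at least 40 points above the plate without the antibiotic, then above 30% in a dose series; inconclusive = first-round hits that could not be retested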;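 also: growth measured after seven days incubation then overnight dye step; 0% = bacteria only wells and 100% = bacteria with antibiotic; twin plates without the antibiotic show which effects depend on it; some results filed as inactive read as strong as hits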
# YopH inh: YopH tyrosine phosphatase inhibitors, primary screen, biochemical, fluorescence Ex485/Em525. YopH tyrosine phosphatase [Yersinia enterocolitica]. inhibition, %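 (about 10 µM by stock and volumes)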. hit rate 0.16% among 140,000;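 active = inhibition of 50% or more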;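 also: controls were vehicle for no effect and minimum signal wells for full effect; inactives centre near -20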
# RecA splice inh: Mtb RecA intein splicing inhibitors, primary screen, biochemical, fluorescence, HTS; AID 2221, 2009; hit rate 0.75% among 290,000; Protein RecA (Mycobacterium tuberculosis (strain ATCC 25618 / H37Rv)), P9WHJ3; inhibition, %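 (about 9 µM by stock and volumes)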; cell-free RecA intein splicing; in the data active = inhibition above about 30%; inconclusive = no clear call, values can overlap the other calls;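 also: 0% = vehicle wells and 100% = reference inhibitor control wells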
# Target sequence (P9WHJ3 whole entry, looked up, canonical isoform): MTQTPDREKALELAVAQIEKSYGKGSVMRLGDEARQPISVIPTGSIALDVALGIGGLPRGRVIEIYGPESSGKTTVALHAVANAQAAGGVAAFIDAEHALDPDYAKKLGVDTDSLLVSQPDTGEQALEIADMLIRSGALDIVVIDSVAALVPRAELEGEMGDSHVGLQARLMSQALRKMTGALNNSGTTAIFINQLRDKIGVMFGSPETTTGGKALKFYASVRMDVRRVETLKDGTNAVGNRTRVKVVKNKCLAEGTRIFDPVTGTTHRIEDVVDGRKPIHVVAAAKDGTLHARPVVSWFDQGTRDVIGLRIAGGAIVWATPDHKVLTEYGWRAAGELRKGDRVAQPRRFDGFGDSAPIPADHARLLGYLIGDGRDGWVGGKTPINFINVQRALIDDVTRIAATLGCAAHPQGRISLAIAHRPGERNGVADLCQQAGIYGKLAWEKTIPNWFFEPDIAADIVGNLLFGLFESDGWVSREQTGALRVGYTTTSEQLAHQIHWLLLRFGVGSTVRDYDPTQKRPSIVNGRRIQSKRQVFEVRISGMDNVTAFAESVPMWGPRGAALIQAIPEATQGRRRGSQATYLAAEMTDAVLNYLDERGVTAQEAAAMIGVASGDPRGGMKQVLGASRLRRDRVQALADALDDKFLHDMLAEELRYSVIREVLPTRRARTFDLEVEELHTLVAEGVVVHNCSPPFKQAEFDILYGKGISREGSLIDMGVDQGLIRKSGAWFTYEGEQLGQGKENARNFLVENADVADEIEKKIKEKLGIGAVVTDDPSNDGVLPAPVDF
# Arbovirus anti repeat: further read-out of Arbovirus anti, marked with its call; inhibition, %; measured here: 10K subset replicate screen; many hits read low in the repeat;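 first of two repeat runs on a subset; 0% = infected and 100% = uninfected wells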
# * = called active by the depositor; ? = inconclusive; . = no result given. An excerpt. The share of hits here may be higher or lower than overall.
SMILES,Arbovirus anti,Mtb growth,Mtb betalactam,YopH inh,RecA splice inh,others
Cc1ccc(S(=O)(=O)N(C)C)cc1NC(=S)NC(=O)C12CC3CC(CC(C3)C1)C2,-14,-3%,-7,-16,-1.1,
COc1cc(-n2c(C)nc3cc(C(=O)NCCN4CCOCC4)ccc32)cc(OC)c1OC,6,-7%,.,-41,.,
COc1ccc(Cl)cc1NC(=S)NCc1ccc(S(N)(=O)=O)cc1,-5,-1%,1,7,-0.8,
CC(C)[C@H](CO)N(Cc1cccc(F)c1)c1nc(Nc2cccc(Cl)c2)c2ncn(C(C)C)c2n1,.,7.3µM*,89,.,2.4,
COc1ccc(NC(=O)/C(=C\c2ccccc2)NC(=O)c2ccco2)cc1,.,.,-1,.,-2.1,
O=C(Nc1ncc(Cc2ccc(Cl)cc2Cl)s1)c1ccc([N+](=O)[O-])cc1,-7,9%,6,-19,-0.6,
CC(Sc1nnc2ccccn12)C(=O)Nc1ccc2c(c1)OCO2 (stereo not drawn),2,1%,-4,.,9.5,
NCCCC[C@H]1CN=C(N)N1CC1CCCCC1,.,-15%,2,.,-1.0,
CCOc1ccc(-c2ccc3nnc(SCC(=O)NCC4CCCO4)n3n2)cc1 (stereo not drawn),.,.,-2,.,4.4,
Cn1c2c(c(=O)[nH]c1=O)C(c1ccc(O)cc1)C1=C(N2)c2ccccc2C1=O (stereo not drawn),-16,0%,1,.,-1.1,
O=C(NC1CC2CCCC(C1)N2C(=S)Nc1ccc(Cl)cc1)C1CC1 (stereo not drawn),.,.,-10,.,-0.9,
COC(=O)c1onc(C(=O)c2ccccc2)c1C(=O)OC,3,-1%,-1,-22,-0.7,
CC12CCC(C(=O)N3CCN(C(=O)C45CCC(C)(C(=O)O4)C5(C)C)CC3)(OC1=O)C2(C)C,2,.,.,2,.,Arbovirus anti repeat=2
CCCOc1cccc(C(=O)O)c1,-1,4%,-2,-17,0.6,
Fc1ccc(/C=N/N2CCOCC2)c(F)c1,7,3%,1,.,-2.4,
Cc1ccc(C(=O)NCC(=O)OCC(=O)c2ccc(Br)s2)cc1,.,.,3,.,-1.2,
COc1ccc(C2C3=C(CC(C)(C)CC3=O)Nc3c2c(=O)[nH]c2nc(C)nn32)cc1 (stereo not drawn),8,0%,4,-51,.,
CCOC(=O)c1ccccc1NC(=O)COC(=O)CN1C(=O)NC2(CCCC2)C1=O,.,.,?,.,1.8,
CCCC(=O)Nc1c2c(nn1-c1ccc(C)cc1)CS(=O)(=O)C2,.,.,-4,.,-1.3,
Cc1c(Cl)ccc(S(=O)(=O)NCCCn2ccnc2)c1Cl,.,.,2,.,-3.5,
CC(=O)c1ccc(OCC(=O)N2CCN(S(=O)(=O)c3ccc(C)cc3C)CC2)cc1,.,.,-10,.,-0.2,
COc1ccc(/C(C#N)=C/c2cccnc2)cc1,.,6%,.,.,2.0,
COc1ccc(NC(=O)N(Cc2cccs2)Cc2cc3cc4c(cc3[nH]c2=O)OCO4)cc1,-8,-8%,-1,-12,-2.6,
O=C(Nc1ccc2ccccc2c1)c1cc(F)c(F)cc1Cl,.,.,-20,.,1.1,
Cc1cccc(-n2c(C)nc3cc(C(=O)N4CCOCC4)ccc32)c1,.,.,5,.,-0.2,
O=C(CSc1ccc(Cl)cc1)N/N=C/c1cccnc1,-2,2%,-7,.,2.4,
CC(=O)N1CCN(C(=O)CCc2nnc(CCCCc3ccccc3)o2)CC1,-4,-10%,0,.,0.9,
S=C(NCc1cccc(Cl)c1)NCc1ccco1,.,.,5,.,6.1,
CCOC(=O)N1CCC(n2c(SCC(=O)OCc3ccccc3)nc3ccsc3c2=O)CC1,8,30%,95,-2,-11,
CCOc1ccccc1-n1c(SCC(N)=O)nnc1-c1cccnc1,2,1%,-5,-30,0.8,
CCOC(=O)N1CCN(C(c2ccc(C(C)C)cc2)c2sc3nc(C)nn3c2O)CC1 (stereo not drawn),4,1%,-2,-24,5.0,Arbovirus anti repeat=10
O=C(O)c1ccc(NC(=O)C2CCCCC2)cc1,12,-3%,-12,12,-0.7,
CCCNc1nc(Cl)nc(NCc2cccnc2)n1,.,-5%,-9,.,4.8,
O=C(C1CC(c2ccc(F)cc2)=NO1)N1CCc2ccccc2C1 (stereo not drawn),-1,-1%,4,-29,0.1,Arbovirus anti repeat=2
Cc1ccc2c(c1)N(CC(=O)NC1CCCC1)C(=O)c1cccnc1O2,.,.,4,.,0.3,
Cc1nc2ccc(S(=O)(=O)NCC(=O)NCCN3CCCCC3C)cc2s1 (stereo not drawn),-4,-7%,0,-30,-0.9,
CSc1ccc(NC(=O)NCCCN2CCC(Cc3ccccc3)CC2)cc1,.,.,?,.,2.0,
O=C1CCCN2N=C(SCC(=O)Nc3nccs3)SC2=N1,-6,3%,0,.,-1.5,
COc1cc(S(=O)(=O)NCCCN2CCOCC2)ccc1-n1cnnn1,-4,-5%,-1,.,2.7,
CC(=O)c1sc2nsc(SCCN3CCOCC3)c2c1N,.,.,-1,.,-16,
CC(Sc1ncnc2ccccc12)C(=O)Nc1ccc2c(c1)OCO2 (stereo not drawn),-8,7%,4,-27,5.4,
Cn1ccc(=Nc2ccc(NC(=O)c3ccc(N=c4ccn(C)c5ccc([N+](=O)[O-])cc45)cc3)cc2)cc1,.,?,100,.,5.3,
CCCC(NC(=O)COc1cc2c(c3oc(=O)cc(C)c13)CCC(C)(C)O2)C(=O)O (stereo not drawn),.,.,-8,.,-2.1,
COCC(=O)NC1CCN(C(=O)Nc2ccc(Br)cc2)CC1,7,-23%,-3,-45,-0.9,
CC(=O)N1CCN(C(=O)c2cc3ccccc3o2)CC1,.,.,3,.,-2.1,
CC(C)n1ncc(C(N)=O)c1N,5,-5%,-5,-31,-4.4,
CCN(CCN(C)C)C(=O)c1ccc2c(c1NCCO)C(=O)c1ccccc1C2=O,-12,-10%,8,.,48*,
Cc1cnn(CCC(=O)NNC(=S)Nc2ccc(F)cc2)c1,6,-2%,-10,-23,-0.5,
O=[N+]([O-])c1ccc(N2CCCCC2)cn1,0,-2%,1,.,5.1,
N#Cc1cccc(NC(=O)CCn2ccnc2)c1,4,-6%,-4,-2,-2.1,
COc1ccccc1NC(=S)N(CCCN1CCOCC1)Cc1ccccn1,-3,-1%,-2,-20,-4.3,
CCc1nnc(NC(=O)CSc2nnc(-c3ccco3)n2C)s1,5,-9%,?,-30,1.8,
CSCCC(NC(=O)c1ccc(Cl)cc1Cl)C(=O)OC1CCCCC1=O (stereo not drawn),.,.,0,.,-2.4,
O=C(N/C(=C/c1ccc(Br)cc1)C(=O)N1CCCCC1)c1ccccc1F,.,.,-3,.,0.9,
COc1cccc(CNC(=O)CCCn2nc(C)c3c(C)n(-c4ccc(C)cc4)nc3c2=O)c1OC,.,.,-11,.,-0.9,
O=C(O)c1ccccc1NCc1ccncc1,4,-1%,28,-24,-3.8,
Cn1cccc1C1(C(F)(F)F)NCCNC1=O (stereo not drawn),2,-9%,-6,-41,-1.7,
CCOC(=O)N1CCN(C(=O)CCc2ccc(S(=O)(=O)NC(C)C)cc2)CC1,.,.,-2,.,-2.7,
Cc1ccc(NC(=O)/C(=C/c2cccc(Br)c2)NC(=O)c2ccco2)cc1,3,5%,5,-6,0.2,
CC(=O)c1cccc(NC(=O)N2CCCC2C(=O)NCc2ccc(F)cc2)c1 (stereo not drawn),-4,0%,0,1,1.8,
# The list continues.
SMILES,Arbovirus anti,Mtb growth,Mtb betalactam,YopH inh,RecA splice inh,others
CC(C)N1CCC(=NNc2ccc([N+](=O)[O-])cc2S(=O)(=O)N2CCOCC2)CC1,-2,-2%,-2,.,-2.3,
Cc1ccc2oc(-c3cccc(NC(=O)/C=C/c4cccc([N+](=O)[O-])c4)c3C)nc2c1,0,8%,22,-5,2.7,
CCOc1ccc(C(=O)Nc2cc(C)on2)cc1OCC,-4,1%,-8,-35,-3.4,
Cc1n[nH]c(=S)c2nn(-c3cccc(Cl)c3)c(C)c12,11,.,.,0,-0.6,
Cc1cc(C)cc(Nc2ncnc3nc[nH]c23)c1,.,.,-8,.,-1.4,
Oc1ccc(C[C@@H]2CNC(=S)N2CCCCC2CCCCC2)cc1,-21,-1%,-3,.,9.7,
CCOC(=O)C1CCCN(C(=O)c2ccc(C)cc2O)C1 (stereo not drawn),4,-2%,-3,-10,-1.6,
Cc1nc2c(c(=O)c3ccccc3n2C)c(=O)n1C1CCCCCC1,.,8%,-2,.,5.2,
COc1ccc(S(=O)(=O)N2CCOCC2)cc1NC(=O)COC(=O)CCOc1ccc(C)cc1,.,.,7,.,-0.4,
CC(C)OCCCNC(=O)c1cccs1,4,-7%,-6,9,-0.5,
COc1cc(C(=O)Nc2ccc(S(=O)(=O)N3CCc4ccccc43)cc2)cc(OC)c1OC,0,0%,-9,1,8.3,
CCOC(=O)c1ccc(NC(=O)CSc2nc(=O)n3cccc(C)c3n2)cc1,.,.,-7,.,-0.8,
COC(=O)[C@H](CCSC)NC(=O)NCc1ccccn1,-1,-10%,-9,-47,5.3,
O=C(OCN1C(=O)c2ccccc2C1=O)c1cccs1,9,2%,-5,17,-1.9,Arbovirus anti repeat=-1
COC(=O)CCC(=O)OC1(C)C(=O)C=C2C=C(C3CC3)N(C3CCCC3)C=C2C1=O (stereo not drawn),.,-10%,5,.,19,
N#Cc1c(C(F)(F)F)cc(C2CC2)[nH]c1=O,10,3%,3,-17,-0.6,
COc1ccc(C(=O)/C=C/Nc2ccc([N+](=O)[O-])cc2C)cc1OC,-7,-9%,3,-8,-11,
COc1ccc(-c2cc(=NCCC(=O)O)c3cc(C)ccc3o2)cc1,1,-1%,.,.,-82,
COC(=O)CCCC(=O)NC1CCCN(C2Cc3ccccc3C2)C1 (stereo not drawn),.,.,-3,.,6.0,
COc1ccc(Br)c(C(=O)Nc2nc3ccccc3[nH]2)c1,.,.,-5,.,-1.3,

# Entries from the list above that contain a COOH group:
SMILES,Arbovirus anti,Mtb growth,Mtb betalactam,YopH inh,RecA splice inh,others
CCCOc1cccc(C(=O)O)c1,-1,4%,-2,-17,0.6,
O=C(O)c1ccc(NC(=O)C2CCCCC2)cc1,12,-3%,-12,12,-0.7,
CCCC(NC(=O)COc1cc2c(c3oc(=O)cc(C)c13)CCC(C)(C)O2)C(=O)O (stereo not drawn),.,.,-8,.,-2.1,
O=C(O)c1ccccc1NCc1ccncc1,4,-1%,28,-24,-3.8,
COc1ccc(-c2cc(=NCCC(=O)O)c3cc(C)ccc3o2)cc1,1,-1%,.,.,-82,

# Later entries.
SMILES,Arbovirus anti,Mtb growth,Mtb betalactam,YopH inh,RecA splice inh,others
COc1ccc2c(C(=O)c3ccc(Cl)cc3)n(CCCC(N)=O)[n+]([O-])c2c1,.,.,-1,.,-6.2,
CCOC(=O)c1c(C(C#N)C#N)cc(C)nc1C,-3,-13%,?,-7,-26,
COc1cccc(CNC(=O)C2CCN(c3nn4c(=O)cc(C)nc4s3)CC2)c1,.,.,-5,.,1.8,
CCCCSc1nc(C)cc(C)c1S(=O)(=O)c1ccccc1C,3,3%,8,-36,-1.1,
O=C1NC(=O)N(c2ccccc2F)C(=O)/C1=C/c1ccc(Sc2nc3ccccc3[nH]2)o1,-1,-2%,-5,15,.,
COc1ccccc1CCC(=O)Nc1nccs1,.,.,6,.,-0.1,
CCn1cc(Br)c(C(=O)N(C)Cc2ccccc2)n1,7,-5%,-9,-11,-1.3,
COc1ccc(/C=N/NC(=O)c2ccc(Br)o2)cc1Cn1cc([N+](=O)[O-])cn1,-2,-5%,2,-34,8.6,
O=C(Nc1ccc(S(=O)(=O)N2CCCCC2)cc1)c1ccco1,.,.,-1,.,0.6,
C#CCOCCOCCOCCNc1nc(N2CCN(C(=O)[C@H](CCC(=O)O)n3cc(C(N)Cc4ccc(O)cc4)nn3)CC2)nc(N2CCN(C(=O)[C@H](Cc3cc4ccccc4[nH]3)n3cc(C(N)CC(C)C)nn3)CC2)n1 (stereo partly drawn),-1,.,-16,.,-2.0,
O=C(NCCN1CCOCC1)C(=O)NCC1OCCN1C(=O)c1ccc(Cl)cc1 (stereo not drawn),0,-2%,-4,-24,5.3,
O=C(CCNC(=O)c1ccccc1)N=Nc1c(O)[nH]c2ccccc12,1,-3%,-1,.,-1.2,
CC(=O)CCc1oc2ccc(C)cc2c1-c1ccccc1,.,16%,5,.,1.1,
CCOCCCNC(=O)c1ccc(Br)cc1,0,-12%,-2,-6,-1.6,

# Pulled one by one from the list above (two):
SMILES,Arbovirus anti,Mtb growth,Mtb betalactam,YopH inh,RecA splice inh,others
COc1ccc2c(C(=O)c3ccc(Cl)cc3)n(CCCC(N)=O)[n+]([O-])c2c1,.,.,-1,.,-6.2,
CCOC(=O)c1c(C(C#N)C#N)cc(C)nc1C,-3,-13%,?,-7,-26,

# High-throughput results deposited in PubChem by several laboratories.
